# Compound activity from PubChem.
# SmPrx2 inh: blocks S. mansoni peroxiredoxin 2 enzymatic activity. 0.07% of 65,000 active. Potency, µM. AID 448. S. mansoni Prx2 activity coupled to TGR/GSH (TGR is thioredoxin glutathione reductase), NADPH fluorescence loss, qHTS; some inactives read as strong as hits; active means full or partial inhibition curve with a strong effect at the top dose; inconclusive means weaker partial or single-point curve; inactive means no accepted curve; further: series up to 57 µM; many of its hits are not listed in these tables
#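 Purified S. mansoni TGR and Prx2 in pH 7.4 phosphate buffer with EDTA and Tween-20 were preincubated with compounds for 15 min. Further NADPH/GSH was added, then a 2.5 mM H2O2 aliquot initiated turnover, followed kinetically by NADPH fluorescence.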
# LT uptake inh: blocks cellular internalization of anthrax lethal toxin; Cells, anthrax lethal toxin internalization, FRET ratio (460/530); Potency, µM (highest dose often 40 µM), for inactives: top-dose activity change, negative = inhibition, actives largely listed as inhibitors; 0.67% of 70,000 active; active = well fitted falling ratio curve with the 530 nm signal flat; inconclusive = other ratio curves, or a change in one channel alone; inactive = flat curves in the ratio and both channels; the % refers to the ratio; further: on the % scale 0 is the no-effect control and ±100 the full control effect; nearly all actives have a fitted effect of over 50% in size; tested in ME-180 cells; beta-lactamase reporter
# Active calls of the source: *; ? = inconclusive; . = not tested or not shown; & = joins results of further samples; [ ] = remark or other dose. Potency means the concentration at half of the fitted maximal effect. A portion of the library; rates above refer to the full screens.
molecule	SmPrx2 inh	LT uptake inh
CCCc1cc(=O)[nH]c(SCC(=O)N(CC(C)C)C2CCS(=O)(=O)C2)n1 (configuration not stated)	>57	-14%
CC(=O)Nc1sc2c(c1C#N)CC(C)(C)NC2(C)C	>57	3%
O=C(NCCCNCc1ccccc1)c1ccncc1	>57	-23%
CCc1nc(Nc2ccncc2)c2oc3ccccc3c2n1	.	-17%
COC(=O)c1ccc(C(/C=C/[C@@H](C)C(=O)N(C)C)NC(=O)OCc2ccccc2)cc1 (some centres not stated)	.	?
Cn1cccc1Cc1nnc(SCC(=O)N2CCCCCC2)n1-c1ccc(F)cc1	>57	-8%
Cc1cccc(N(C)c2cc(C)nc3nc(C)nn23)c1	>57	-8%
N#Cc1c2c(c(N3CCN(c4ccccn4)CC3)n3c1nc1ccccc13)CCC2	.	21%
O=C(NCc1ccccn1)[C@@H]1C[C@H]1[C@@H](NP(=O)(c1ccccc1)c1ccccc1)c1ccccc1	>57	0%
O=C(O)c1ccc(OC(F)(F)C(F)C(F)(F)F)cc1 (configuration not stated)	.	12%
Cc1cc2cc(CN(C(=O)C3CC3)C3CCCC3)c3nnnn3c2cc1C	>57	0%
CCCS(=O)(=O)N1CCN(C(=O)COc2ccc(-c3ccccc3)cc2)CC1	>57	3%
CC(=O)OCN(C#N)c1nc(N(C)C)nc(N(C)C)n1	>57	4%
COc1cc(C(C#N)N2CCCCC2)ccc1O (configuration not stated)	.	-7%
Cc1ccccc1OCC(=O)Nc1ccccc1CO	.	-11%
O=C(Cc1ccccc1)Nc1ccc(NC(=O)c2ccco2)nc1	>57	-3%
CC1(C)c2ssc(=S)c2-c2ccccc2N1C(=O)c1ccco1	>57	-15%
Cc1c(C(=O)O)oc2c3c(ccc12)OCCO3	.	3%
C/C(=C\C=C/[C@@H](C)C(=O)O)[C@H]1CN[C@H](C(=O)O)[C@@H]1CC(=O)O	>57	-6%
CCCBr	.	?
CSc1ccccc1NC(=O)c1cccs1	>57	1%
COc1ncnc2c1N[C@@](C)(O)c1c(F)c(F)c(F)c(F)c1S2	>57	?
CC(=O)Nc1ccc(NC(=O)CSc2nccn2Cc2ccccc2)cc1	.	-16%
Cc1oc(-c2ccc(Cl)cc2)nc1CN1CCC(C(=O)N2CCc3ccccc3C2)CC1	>57	-10%
Cc1ccc(C2CC(c3ccccc3Cl)n3nc(N)nc3N2)cc1 (configuration not stated)	>57	-9%
COc1ccccc1NC(=O)Nc1ccnn1Cc1cccs1	>57	-3%
CCn1cc(C(=O)N2CCN(Cc3ccc4c(c3)OCO4)CC2)c2cc(OC)c(OC)cc2c1=O	>57	-17%
Cc1ccc(CNC(=O)[C@H](C)[C@@H]2C[C@@]2(C)[C@@H](NC(=O)OCc2ccccc2)c2ccccc2)o1	>57	-13%
COc1ccc2[nH]c3nc(SC(C)C)nnc3c2c1	>57	5%
CCCc1nc(SCC(=O)NCc2ccc3c(c2)OCO3)c2c(=O)n(C)c(=O)n(C)c2n1	>57	-4%
Cc1cccc(NC(=O)c2cc3ccccc3c(=O)o2)n1	>57	10%
CCc1ccccc1S(=O)(=O)Cc1ccc(C(=O)N2CCN(c3ccccc3OC)CC2)o1	>57	?
CC(=O)c1ccc(OCC(O)CN2CCN(Cc3ccccc3)CC2)cc1 (configuration not stated)	>57	-8%
C[C@@H]1CCCN(CP(=O)(c2ccccc2)c2ccccc2)C1	>57	-8%[8 µM]
O=C(NC(C(=O)c1ccccc1)N1CCOCC1)c1cccs1 (configuration not stated)	>57	4%
COc1ccc(C(=O)O)cc1S(=O)(=O)NCCCN1CCCC1=O	>57	3%
CCc1nc(CNC(=O)c2cc(OC)c(OC)c(OC)c2)no1	>57	3%
O=C(NCc1ccco1)c1cc(-c2ccc(F)cc2)on1	>57	0%
COc1cc2[nH]c(=O)n(CCC(=O)NCc3cccnc3)c(=O)c2cc1OC	>57	5%
CC(C)OCCCNC(=O)C1CC(=O)N(C2CCCCCCC2)C1 (configuration not stated)	>57	-11%

# No new results follow: three of the compounds above.
molecule	SmPrx2 inh	LT uptake inh
O=C(NCc1ccco1)c1cc(-c2ccc(F)cc2)on1	>57	0%
COc1cc2[nH]c(=O)n(CCC(=O)NCc3cccnc3)c(=O)c2cc1OC	>57	5%
CC(C)OCCCNC(=O)C1CC(=O)N(C2CCCCCCC2)C1 (configuration not stated)	>57	-11%

# (continued)
molecule	SmPrx2 inh	LT uptake inh
C=CCN1C(=O)C2(C(C(=O)OCC)=C(N)Oc3ccccc32)C2=C1CCCC2=O (configuration not stated)	>57	-12%
COc1cccc(CNC(=O)C2CCN(S(=O)(=O)N3CCCCC3)CC2)c1	>57	?
CC(C)CC1(C)NC(=O)N(CCN2C(=O)c3ccccc3C2=O)C1=O (configuration not stated)	>57	6%
COCCCNC(=O)c1ccc(CS(=O)(=O)c2ccc(Br)cc2)o1	>57	-19%
CCCOC(=O)c1ccc2c(c1)C(=O)N(c1ccccc1)C2=O	>57	-6%
Cc1cc(Nc2ccc(F)c(Cl)c2)n2nc(C)nc2n1	>57	0%
CCCc1cc(N2CCCC(C(=O)NCC)C2)n2ncnc2n1 (configuration not stated)	>57	0%
O=C(CSc1nnc(CNC(=O)c2ccccc2F)o1)Nc1ccc2c(c1)OCCO2	>57	-3%
Cc1cccc(-n2c(SCC(=O)N3CCCC3)nnc2-c2ccccn2)c1C	>57	16%
COC(=O)c1ccc(Cn2c(CN3CCOCC3)nc3ccccc3c2=O)o1	>57	25%
N#Cc1ccc(CN2CC[C@@]3(CCCN(C(=O)c4cnccn4)C3)C2)cc1	>57	?
CCn1cc(C(=O)N2CC(C)CC(C)C2)c(=O)c2cc(S(=O)(=O)N(C)C)ccc21 (configuration not stated)	>57	-14%
C=CCn1c(=O)n(CC=C)c(=O)n(CC=C)c1=O	.	-2%
Cc1ccc2cc(C(c3nnnn3CC3CCCO3)N3CCCC4(CCCCC4)C3)c(=O)[nH]c2c1 (configuration not stated)	>57	-13%
Cn1nc(C(=O)NCc2ccccc2)c2ccccc2c1=O	>57	-8%
CCOc1ccc(Nc2nc(Cc3nnc(SCC(=O)NCc4ccco4)n3CC)cs2)cc1	>57	-7%
O=C1c2ccccc2CCC1C(O)c1ccccn1 (configuration not stated)	>57	-4%
COC(=O)c1sc(=S)n(-c2cc(F)ccc2F)c1N	>57	.
COc1ccc(-c2noc(Cc3ccc(Cl)cc3)n2)cc1OC	>57	-14%
CC1(C)C(=O)C2(CCCCC2)C(=O)OC1c1ccc(O)cc1 (configuration not stated)	>57	?
CN(C)S(=O)(=O)c1ccc(S(=O)(=O)N(Cc2ccco2)Cc2ccccc2Cl)cc1	>57	?
Oc1cc2c(cc1O)[C@H](c1ccccc1)CNCC2	>57&>57	?
O=C(c1cccc(F)c1)N1CCN(c2cccc(Cl)c2)CC1	>57	-21%
CCOC(=O)c1cccc(NC(=O)C(NS(=O)(=O)c2ccc3c(c2)CCN3C(C)=O)C(C)C)c1 (configuration not stated)	>57	-15%
O=C(CCN1C(=O)COc2ccccc21)NCc1cccnc1	>57	?
CCn1nccc1C(=O)Nc1ccc(Cl)cc1Cl	>57	1%
O=C(Nc1ccc(Cl)cc1C(=O)NCCN1CCOCC1)c1ccco1	>57	5%
O=C1CC(c2ccco2)c2ccc3ccccc3c2N1 (configuration not stated)	>57	-11%
CC(C)(C)NC(=O)[C@@H]1C[C@@H]2CCCC[C@@H]2CN1C[C@@H](O)[C@H](Cc1ccccc1)NC(=O)[C@H](CC(N)=O)NC(=O)c1ccc2ccccc2n1	.	-7%
c1ccc(-c2noc(C34CC5CC(CC(C5)C3)C4)n2)nc1	>57	12%
Cc1nnc(SCC(=O)Nc2c(Cl)cccc2Cl)[nH]c1=O	>57	-5%
Cc1ccc(C)c(N(CC(N)=O)S(C)(=O)=O)c1	>57	-5%
CC1(C)CC(=O)c2cnc(NCC3CCCO3)nc2C1 (configuration not stated)	>57	-5%
COc1ccc(S(=O)(=O)N(Cc2ccc(OC)c(OC)c2)Cc2ccco2)cc1	>57	.
COc1ccc(Cl)cc1NS(=O)(=O)c1cc(Cl)ccc1OC	.	?
CCCC(=O)c1c(NC(C)C)cc(C)oc1=O	.	3%
C=CCOC(=O)C(C(C)=O)C(NC(=O)OC)c1cccc(F)c1 (configuration not stated)	.	-10%[8 µM]
Cc1cc(C)nc(NC(=O)NS(=O)(=O)Nc2ccc(Br)cn2)n1	>57	-4%
O=C(NCCc1ccccc1)C1CCN(S(=O)(=O)c2ccc(-n3cnnn3)cc2)CC1	>57	-5%
O=C(NC1CCCCC1)C1CCCN(c2nnnn2-c2ccccc2)C1 (configuration not stated)	>57	-1%
CCn1c(COc2ccc(Cl)c(C)c2)nnc1SCC(=O)N1CCCC1	>57	?
N=c1n(Cc2ccccc2)c2ccccc2n1CC(O)c1ccco1 (configuration not stated)	>57	-11%
COc1ccc(CNC2CCCCC2)cc1	>57	-21%
COc1ccccc1CNc1ccnc(-c2ccccc2CN(C)C)n1	>57	-9%
Cc1ccc2cc(CN(Cc3ccco3)C(=O)c3cccs3)c(=O)[nH]c2c1	>57	-12%
Cc1ccc(C2CC(=O)c3cnc(NC(=O)c4ccco4)nc3C2)cc1 (configuration not stated)	>57	.
Cc1nc(NCc2ccccc2)[nH]c(=O)c1CCC(C)C	>57	.
O=C(CSc1ccc2nnc(-c3ccccc3)n2n1)N1CCCCC1	>57	?
O=C(NC1CCCc2ccccc21)C1CCN(C(=O)c2sccc2-n2cccc2)CC1 (configuration not stated)	>57	?
CCOC(=O)N1CCN(c2c(N3CC=C(c4ccccc4)CC3)c(=O)c2=O)CC1	>57	8%
COc1cc2c(cc1O)C(CCc1ccc(Cl)cc1)N(C)CC2 (configuration not stated)	.	?
CC(C)N(Cc1nc(-c2ccccc2)no1)C(=O)c1ccc(Br)o1	>57	-2%
O=C(NCc1ccncc1)C1CCCN(S(=O)(=O)Cc2ccccc2)C1 (configuration not stated)	>57	10%
COc1cccc(-c2ccc3ncnc(N(C)C)c3c2)c1	>57	?
COc1ccc(CC(C)N2CCN(Cc3ccccc3)CC2)c(OC)c1 (configuration not stated)	.	-27%
O=C(Nc1ccccc1)C1CC=CCC1C(=O)OCC1CCCO1 (configuration not stated)	.	-10%
CCn1c(SCc2nnc(-c3ccccc3)o2)nc2c1c(=O)n(C)c(=O)n2C	>57	-13%
Nc1[nH]c(=O)nc2c1ncn2[C@H]1O[C@@H](CO)[C@@H](O)[C@@H]1O	>57	-8%[8 µM]
CCC(OC(=O)c1nsc(Cl)c1Cl)C(=O)NCc1ccco1 (configuration not stated)	>57	-2%
Cc1ccc(C2=CSC3=NCCN23)c(C)c1	>57	?

# One compound at a time (already shown). Values in the order: SmPrx2 inh, LT uptake inh
# `Nc1[nH]c(=O)nc2c1ncn2[C@H]1O[C@@H](CO)[C@@H](O)[C@@H]1O` as listed: >57, -8%[8 µM]
# `O=C(Nc1ccccc1)C1CC=CCC1C(=O)OCC1CCCO1` (configuration not stated) as listed: ., -10%
# `Cc1ccc(C2=CSC3=NCCN23)c(C)c1` as listed: >57, ?
# `COc1ccc(CC(C)N2CCN(Cc3ccccc3)CC2)c(OC)c1` (configuration not stated) as listed: ., -27%
# `Cc1ccc(C2CC(=O)c3cnc(NC(=O)c4ccco4)nc3C2)cc1` (configuration not stated) as listed: >57, .

# A draw from above in order of formula weight, low to high.
molecule	SmPrx2 inh	LT uptake inh
Cc1nc(NCc2ccccc2)[nH]c(=O)c1CCC(C)C	>57	.
Cc1ccc(C2CC(=O)c3cnc(NC(=O)c4ccco4)nc3C2)cc1 (configuration not stated)	>57	.
CCn1c(COc2ccc(Cl)c(C)c2)nnc1SCC(=O)N1CCCC1	>57	?

# (more compounds)
molecule	SmPrx2 inh	LT uptake inh
O=C1CC(c2ccccc2)CC(O)=C1C=NCC1CCCO1 (configuration not stated)	>57	-4%
O=C(O)c1cccc(S(=O)(=O)NCC2CCCO2)c1 (configuration not stated)	>57	.
c1ccc2sc(SCSc3nc4ccccc4s3)nc2c1	>57	?
COc1ccc(-c2cc(C(F)(F)F)nc(SCC(N)=O)n2)cc1	>57	?
CCSc1ncc(C#N)c(=O)[nH]1	>57	?
CC(OC(=O)c1nn(C)c(=O)c2ccccc12)C(=O)NCc1ccc2c(c1)OCO2 (configuration not stated)	>57	?
CCN1CCN(c2ncc(C(=O)Nc3ccccc3C(=O)OC)c3ccccc23)CC1	>57	10µM*
CCc1ncc(CO)n1Cc1cccc2ccccc12	>57	5%[8 µM]
CCCn1c(N)c(C(=O)CSc2nnc(Cc3ccccc3)o2)c(=O)n(C)c1=O	>57	8%
O=c1[nH]c(CSc2ncc(-c3ccc(F)cc3)n2Cc2ccco2)nc2ccccc12	>57	?
CCOc1ccc(N(CC(=O)OC)S(=O)(=O)c2c(C)noc2C)cc1	>57	-26%
COc1ccccc1N1CCN(C(=O)c2cc(-c3ccc(Br)cc3)on2)CC1	>57	-24%
Cc1ccc(CNc2ccc3c(c2)ncn3C)cc1	>57	9%
NCCc1nnc(SCc2ccccc2)o1	>57	-9%
CC(=O)NCCOc1c(C)cc(S(N)(=O)=O)cc1C	.	-4%
